Ecoli growth – inhibitors of Escherichia coli growth. OD600, 23 h; hits give low values. OD600 absorbance (no concentration beside the values). actives 0.21% (n = 330,000);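 active = OD600 absorbance below the run mean of sample wells minus 3.6 SD, in any replicate, cut at about 0.56 in these data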;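 note: stock transfer was 300 nL into about 60 µL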
UCH37 inh – inhibitors of human deubiquitinating enzyme UCH37; Q9Y5K5; actives 0.33% (n = 330,000); AID 588478; purified proteasome/UCH37, Ub-AMC cleavage fluorescence; inhibition, % (no concentration beside the values);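 active = mean of two replicates above 20%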;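 note: 0% = compound-free wells with enzyme and 100% = wells lacking proteasome; stock transfer was 100 nL into about 20 µL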
Target sequence (Q9Y5K5 whole entry, looked up): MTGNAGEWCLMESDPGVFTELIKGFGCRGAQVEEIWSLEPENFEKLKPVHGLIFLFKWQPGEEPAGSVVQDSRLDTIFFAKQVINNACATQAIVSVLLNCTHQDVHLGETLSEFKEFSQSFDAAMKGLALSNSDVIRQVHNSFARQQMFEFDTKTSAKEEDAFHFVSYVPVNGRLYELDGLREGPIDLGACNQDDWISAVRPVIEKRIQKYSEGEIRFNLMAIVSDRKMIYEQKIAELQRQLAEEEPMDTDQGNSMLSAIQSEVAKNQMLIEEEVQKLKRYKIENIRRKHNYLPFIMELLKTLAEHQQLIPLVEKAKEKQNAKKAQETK
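Test system – human UCH37 enzyme supplied as purified proteasome complex · Incubation – 30 min preincubation with enzyme, 25 min cleavage at room temperature · Detection – AMC fluorescence from Ub-AMC cleavage, excitation 355 nm, emission 460 nm · Benchmarks – no-proteasome wells (full inhibition) and compound-free wells (no inhibition)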
The depositor's hits bear a star. These rows are one share of the data; the hit share may differ from the screen's.

The opening 5 compounds, ahead of the listing:
SMILES | Ecoli growth | UCH37 inh
CC12CCC(C(=O)NN=Cc3ccc(O)cc3)(OC1=O)C2(C)C (stereo not drawn) | 0.68 | 2.6
CCOc1ccc(C=NNC(=O)c2[nH]c3ccc(C)cc3c2C)cc1 | 0.72 | -7.7
Cc1nc2ccccc2n1N=Cc1cccnc1 | 0.6 | 4.4
Clc1ccc(-c2nc(C=NN3CCOCC3)c3ccccn23)cc1 | 0.67 | 4.9
COC(=O)C=c1sc(=C(C#N)C(=O)N2CCCCC2)n(-c2ccccc2)c1=O | 0.69 | 1.2

The list itself (from the top)
SMILES | Ecoli growth | UCH37 inh
CC12CCC(C(=O)NN=Cc3ccc(O)cc3)(OC1=O)C2(C)C (stereo not drawn) | 0.68 | 2.6
CCOc1ccc(C=NNC(=O)c2[nH]c3ccc(C)cc3c2C)cc1 | 0.72 | -7.7
Cc1nc2ccccc2n1N=Cc1cccnc1 | 0.6 | 4.4
Clc1ccc(-c2nc(C=NN3CCOCC3)c3ccccn23)cc1 | 0.67 | 4.9
COC(=O)C=c1sc(=C(C#N)C(=O)N2CCCCC2)n(-c2ccccc2)c1=O | 0.69 | 1.2
C(=NN(Cc1ccccc1)c1ccccc1)c1ccco1 | 0.68 | 0.6
COc1ccc(C(=O)NN=C(C)c2cccc(NC(=O)c3ccccc3F)c2)cc1 | 0.7 | 4.0
CCCCNC(=S)NN=Cc1cccc(OCC)c1O | 0.7 | 1.3
Cn1ncc(C#N)c1N=CN1CCCCC1 | 0.69 | 0.6
Cc1cc(C(=O)NN=Cc2cc(Cl)cc([N+](=O)[O-])c2O)c2ccccc2n1 | 0.69 | 11
O=C(NN=Cc1cccnc1)c1ccccc1OCc1ccc(Br)cc1 | 0.69 | 3.5
O=C(CNC(=O)c1ccncc1)NN=Cc1ccccn1 | 0.72 | 0.6
CC(=NNc1nc2ccccc2[nH]1)c1ccc(C)o1 | 0.63 | 6.4
CCC(=O)Nc1ccc(C(C)=NNS(=O)(=O)c2ccc(C)cc2)cc1 | 0.78 | 0.3
CC(=O)NN=CC1=CCC2CC1C2(C)C (stereo not drawn) | 0.71 | -1.0
Cc1c(NC(=O)C(=O)/C=C(/O)c2ccc(Cl)cc2)c(=O)n(-c2ccccc2)n1C | 0.68 | 15
Cc1cc(C)nc(NN=C/C=C/c2ccccc2)n1 | 0.68 | 10.0
CCC(=O)Nc1cccc(NC(C)=O)c1 | 0.76 | -2.1
Oc1oc(-c2cccc3ccccc23)nc1C=Nc1nccs1 | 0.71 | 9.3
COc1ccc(C(=O)NN=Cc2coc3ccc(C)cc3c2=O)cc1 | 0.65 | -7.5
CC(=NNC(=O)c1ccccc1O)c1ccc(NC(=O)Cc2ccccc2)cc1 | 0.69 | -25
O=C(NN=Cc1ccc(OC(=O)c2cccs2)cc1)c1ccccn1 | 0.73 | -12
O=C(CNc1cccc2ccccc12)NN=Cc1ccc(OC(=O)/C=C/c2ccco2)cc1 | 0.74 | 4.5
CON=CNC(=O)Cc1cn(-c2ncc(C(F)(F)F)cc2Cl)c2ccccc12 | 0.66 | -0.2
CC(=NNC(=O)c1cccs1)c1c(O)cc(C)oc1=O | 0.69 | 5.4
C=CCNC(=S)NN=Cc1ccc(C)c([N+](=O)[O-])c1 | 0.66 | 2.3
O=C(O)COc1ccc(C=Nn2c(COc3ccccc3)nc3ccccc3c2=O)cc1 | 0.65 | 4.8
Cc1cccn2c(=O)c(C=NO)c(N3CCCC3)nc12 | 0.73 | 4.4
N#CC1=C(N)n2c(sc(=Cc3cccs3)c2=O)=C(C#N)C1c1cccs1 (stereo not drawn) | 0.71 | 8.9
COc1ccc(C=NNC(=O)c2ccncc2)cc1CN1CCCc2ccccc21 | 0.66 | 6.1
Cc1ccc2cc(C#N)c(SCC(=O)Nc3ccc4sc(C)nc4c3)nc2c1 | 0.69 | -2.7
Cn1c(=O)c2cn3ncccc3c2n(C)c1=O | 0.61 | -1.4
COc1ccc(C=NNC(=O)COc2cc(C)cc(C)c2)cc1COC(C)=O | 0.67 | 2.5
COc1cc(C=NNC(=S)NCC2CCCO2)cc(OC)c1OC (stereo not drawn) | 0.68 | 4.9
O=C(CNS(=O)(=O)c1ccccc1)NN=Cc1ccc(O)cc1 | 0.74 | 1.6
Cc1ccc(C=NNC(=O)c2cc(-c3cccnc3)nc3ccccc23)cc1 | 0.72 | 1.9
COc1cc(C=NNC(=O)c2ccc(C)nc2)ccc1OC(=O)c1ccco1 | 0.72 | 8.1
Cc1cc(C)nc(NN=Cc2cc3c(cc2[N+](=O)[O-])OCO3)n1 | 0.65 | 5.0
CCOc1cc(C=NNC(=O)CN2CCCCC2)ccc1OCc1ccc(Cl)cc1 | 0.67 | 3.9
CC(C)(C)S(=O)(=O)C(C#N)=NNc1ccc(Cl)cc1 | 0.68 | 14

Two entries from above, in CSV form:
smiles,Ecoli growth,UCH37 inh
N#CC1=C(N)n2c(sc(=Cc3cccs3)c2=O)=C(C#N)C1c1cccs1 (stereo not drawn),0.71,8.9
COc1ccc(C=NNC(=O)c2ccncc2)cc1CN1CCCc2ccccc21,0.66,6.1

Continued.
SMILES | Ecoli growth | UCH37 inh
Cc1ccc(C)c(NC(=O)CCC(=O)NN=Cc2ccc3c(c2)OCO3)c1 | 0.73 | 7.7
Cc1ccccc1C(=O)Nc1ccc(C(=O)NN=Cc2ccc(O)cc2)cc1 | 0.69 | -7.8
Cc1ccccc1C=NNC(=O)Cn1nnc(N)n1 | 0.69 | 4.5
O=S1(=O)CCC(=NNc2ccccc2)c2ccsc21 | 0.66 | 4.3
COc1ccc(CCCc2nnc(SCC(=O)NN=Cc3ccc(O)c(OC)c3)o2)cc1C | 0.79 | 4.4
COc1ccc(Cl)cc1NC(=O)CC(C)=NNC(=O)CC#N | 0.75 | 5.8
Cc1csc(NN=Cc2cccnc2)n1 | 0.71 | 11
CC(=O)CN1Cc2ccccc2C1=NC(=O)Nc1ccccc1 | 0.66 | 1.0
COc1ccc(OC)c(C=NNC(=O)c2cc3c(OC)c(OC)ccc3[nH]2)c1 | 0.7 | -7.9
Cn1c(=O)c2c(nc(Br)n2CC=NNC(N)=S)n(C)c1=O | 0.65 | 4.7
O=C(CNC(=O)c1ccc(Cl)cc1)NN=Cc1cccnc1 | 0.66 | 2.6
O=C(Cn1cc(C(F)(F)F)ccc1=O)NN=Cc1ccc(Cl)cc1Cl | 0.69 | 3.5
COc1ccc(C=NNC(=O)c2ccc(F)cc2)cc1COc1ccccc1C(N)=O | 0.7 | -7.7
CC(=O)Nc1ccc(C=NNC(=O)c2cccc(S(=O)(=O)N3CCOCC3)c2)cc1 | 0.68 | -8.7
CCN(Cc1ccccc1)c1ccc(C=NN=C(N)N)cc1 | 0.5* | -149
O=C(NN=C/C=C/c1ccccc1[N+](=O)[O-])c1ccncc1 | 0.7 | 9.3
CCOc1ccc(C=NNC(=O)CSc2ccccn2)cc1O | 0.68 | 6.6
CC(=NNC(=O)c1ccc(O)cc1)c1ccc(NC(=O)Cc2ccccc2)cc1 | 0.69 | 3.9
CCC(=O)Nc1ccc(C(C)=NNC(=O)c2ccc(C)s2)cc1 | 0.72 | -14
COc1cccc(C=NNC(=O)CSCC(=O)Nc2ccccc2)c1O | 0.7 | 2.8
COc1ccc(OC)c(C=NN=C(N)c2nonc2N)c1 | 0.68 | 9.2
COc1ccccc1/C=C/C=NNC(=O)c1ccccn1 | 0.68 | -1.6
CCn1ncc(C=NNC(=O)c2csc3ccccc23)c1C | 0.72 | 1.6
Cc1ccccc1NN=Cc1ccc(C#N)cc1 | 0.68 | 1.6
Oc1ccc(C=NNc2nc(-c3cccnc3)nc3ccccc23)c(O)c1 | 0.7 | 0.4
COc1cccc(C=NNC(=O)CCCc2ccc(OC)c(C)c2)c1 | 0.68 | 6.4
COc1cc(C(C)=NNC(=O)Cc2c(C)[nH][nH]c2=O)ccc1O | 0.67 | -1.3
Oc1c(Cl)cc(Cl)cc1C=NNC(=S)NC1CC2C=CC1C2 (stereo not drawn) | 0.7 | -88
CC(=NNC(=O)Nc1ccccc1)c1ccc2ccccc2c1 | 0.7 | 6.0
O=[N+]([O-])c1ccc(NN=Cc2cccnc2)nc1 | 0.63 | 3.8
CON=CCC(=O)Nc1ccc(F)cc1 | 0.73 | 2.0
CC(=NNC(=O)C1CCCN(S(=O)(=O)c2ccccc2)C1)c1ccncc1 (stereo not drawn) | 0.67 | 6.0
C/C(C=NNC(=O)c1cc(-c2cccnc2)nc2c1c(C)nn2-c1ccccc1)=C\c1ccccc1 | 0.73 | -143
CC(=NNC(=O)c1ccoc1C)c1cccc(NC(=O)C2CC2)c1 | 0.68 | 2.2
Cc1cccc(C(=O)Nc2cccc(C(=O)NN=Cc3ccccn3)c2)c1 | 0.64 | -1.2
O=C(CCSc1nc2ccccc2s1)NN=Cc1c(O)ccc2ccccc12 | 0.74 | 0.7
Cn1cc(C(=O)NN=Cc2c(O)ccc3ccccc23)ccc1=O | 0.68 | -12
COc1ccccc1C=NN(C(C)=O)c1nc(-c2ccc(F)cc2)cs1 | 0.74 | 7.3
CC(=NNc1ccccc1[N+](=O)[O-])c1ccccc1O | 0.69 | -1.2
C=CCNC(=S)N=c1scc(C)n1C | 0.68 | 6.6

A second format for part of the listing above:
SMILES: Oc1ccc(C=NNc2nc(-c3cccnc3)nc3ccccc23)c(O)c1
  Ecoli growth: 0.7; UCH37 inh: 0.4
SMILES: COc1ccc(OC)c(C=NN=C(N)c2nonc2N)c1
  Ecoli growth: 0.68; UCH37 inh: 9.2

Continuation.
SMILES | Ecoli growth | UCH37 inh
Cc1cc(C)c2c(N)c(C(=O)NN=Cc3ccccc3)sc2n1 | 0.67 | -60
O=C(C[n+]1ccccc1)NN=Cc1ccc(Cl)cc1 | 0.67 | 2.7
O=[N+]([O-])c1ccc(-c2ccc(C=Nc3c(-c4ccco4)nc4ccccn34)o2)cc1 | 0.7 | 8.8
O=C(O)c1ccccc1NN=Cc1ccnc2ccccc12 | 0.75 | 12
CC(CC(C)(C)c1ccccc1)=NNS(=O)(=O)c1ccccc1 | 0.69 | 3.3
S=c1[nH]nc(COc2ccccc2)n1N=C/C(Cl)=C/c1ccccc1 | 0.67 | 6.0
CC(=O)C(=NNc1ccccc1[N+](=O)[O-])N1CCCc2ccccc21 | 0.69 | 5.0
CC(=O)N(N=C1Sc2ccccc2C1=O)c1ccccc1 | 0.7 | 31*
COc1ccc(OCC(=O)NN=CC2CC=CCC2)cc1 (stereo not drawn) | 0.63 | 4.2
O=C1C(=O)N(CCCN2CCOCC2)C(c2cccs2)/C1=C(/O)c1ccc2c(c1)OCO2 (stereo not drawn) | 0.67 | 3.5
Cc1cccc(C)c1OCC(=O)NN=Cc1ccncc1 | 0.71 | 4.0
O=C(NN=Cc1cc([N+](=O)[O-])ccc1O)c1cccc(N2CCCC2=O)c1 | 0.7 | 9.4
COc1ccccc1NS(=O)(=O)c1cc([N+](=O)[O-])ccc1NN=Cc1c(C)[nH]c2ccccc12 | 0.77 | 5.9
CCOc1ccc(C(=O)NN=Cc2c(C)[nH]c(=O)[nH]c2=O)cc1 | 0.66 | -91
O=C(NN=Cc1cc(Br)c(O)c(Br)c1)C1CC1 | 0.64 | -13
CN(C)c1ccc(C=NNC(=O)c2nnn(-c3nonc3N)c2CN2CCCCCC2)cc1 | 0.72 | -19
CCOC(=O)C=c1sc(=Cc2c(OCC)ccc3ccccc23)c(=O)n1CC(=O)NCC1CCCO1 (stereo not drawn) | 0.75 | 2.8
COc1ccc(C=NNC(=O)C2(C)NC(C)(C)Cc3ccccc32)cc1 (stereo not drawn) | 0.73 | 8.3
O=C(NN=Cc1ccc(-c2ccccc2[N+](=O)[O-])o1)C1COc2cc3ccccc3cc2O1 (stereo not drawn) | 0.78 | 7.8
COc1c(O)cccc1C=NNC(=O)Cn1ccnc1C | 0.64 | 0.4
CC(=NNC(=O)c1ccc(Br)o1)c1ccncc1 | 0.67 | -13
Clc1ccc(C=NNc2nc(Cl)nc3ccccc23)cc1 | 0.73 | 3.0
CCCc1n[nH]c2c1C(=NO)CCC2 | 0.71 | 0.2
CCOc1ccc(C=NNC(=O)C(C)Sc2ccccn2)cc1OCC (stereo not drawn) | 0.74 | 5.1
COc1cccc(C=NNC(=O)C(=O)NN=Cc2cccc(OC)c2OC)c1OC | 0.68 | -29
COCCNC(=S)NN=Cc1ccccc1C(=O)O | 0.69 | 3.2
O=C(O)c1ccccc1N=NC(=NNc1cc(S(=O)(=O)O)ccc1O)c1ccccc1 | 0.68 | 20
COc1ccc(N(CC(=O)NN=Cc2ccc(OC)c(OC)c2)S(=O)(=O)c2ccccc2)cc1 | 0.69 | 0.5
Cc1ccc(S(=O)(=O)N=C(Sc2ccccc2C(=O)O)c2ccccc2)cc1 | 0.68 | 0.7
Cc1ccc(-c2c(C(=O)NN=Cc3cccs3)nnn2-c2nonc2N)cc1 | 0.68 | 3.7
Cc1nn(C)cc1C=NNC(=O)C1(O)c2ccccc2-c2ccccc21 | 0.69 | 3.5
COc1ccc(C=NNC(=O)c2cccc(NC(=O)c3ccc(Cl)cc3)c2)c(OC)c1 | 0.68 | -22
CCC(=NN=C(CC)c1ccccc1)c1ccccc1 | 0.72 | 5.4
Cc1n[nH]c(=S)n1N=Cc1ccc(OCc2ccc(Cl)cc2Cl)cc1 | 0.74 | 0.0
COc1cc(C=NN=C(N)c2nonc2N)cc(OC)c1O | 0.66 | 11
CC(=NNC(=O)c1ccccc1C)c1ccc(NC(=O)c2cccs2)cc1 | 0.72 | -7.8
Brc1cc2c(cc1C=NNc1nc3ccccc3s1)OCO2 | 0.76 | -1.5
O=c1nc(NN=Cc2c[nH]c3ccccc23)cn[nH]1 | 0.67 | 13

Screening results: PubChem BioAssay, ICCB-Longwood Screening Facility, Harvard Medical School
